Screening data (PubChem BioAssay)
Vaccinia Venus: qHTS for Stage-Specific Inhibitors of Vaccinia Orthopoxvirus: Venus Reporter Primary qHTS | Vaccinia virus Venus reporter expression, fluorescence | Potency, µM (top dose mostly 36.5 µM), for inactives: top-dose activity change, negative = inhibition, usual class: inhibitors | hit rate 0.46% among 330,000; active means well fitted inhibition curve with a large enough effect; inconclusive means small, poorly fitted or top-dose-only effect; inactive means no such curve, though single readings can be large or run the other way; tested in A549 cells; further: nearly all actives have a fitted effect of over 30% in size; inactives centre near -10
VACV mCherry inh: qHTS for Stage-Specific Inhibitors of Vaccinia Orthopoxvirus: mCherry Reporter Primary qHTS | Vaccinia virus mCherry reporter infection, fluorescence; about a quarter of the inactives have no number | Potency, µM (titrated, usually from 36.5 µM), for the others: at the highest dose activity change, negative = inhibition, usual class: inhibitors | hit rate 0.63% among 310,000 | AID 720579, 2013; active = well fitted inhibition curve with a large enough effect; inconclusive = small, poorly fitted or top-dose-only effect; inactive = no such curve, though single readings can be large or run the other way; tested in A549 cells; further: nearly all actives have a fitted effect of over 35% in size; inactives centre near -10
* marks the source's active call; other numbers are inactive results; i = inactive; ? = inconclusive; . = not tested or not shown; & = joins results of further samples; [ ] = another dose, or the depositor's remark. On the % scale 0 is the no-effect control and ±100 the full control effect; potency means the concentration at half of the fitted maximal effect.

Preview (2 entries):
SMILES	Vaccinia Venus	VACV mCherry inh
O=C(/C=C/[C@H]1O[C@@H](n2ccc(=O)[nH]c2=O)[C@H](O)[C@@H]1O)NC1CCN(Cc2ccccc2)C1 (some centres undefined)	2%	1%
NC(=O)C1CCN(CC(=O)Nc2nccs2)CC1	10%	-11%

The list itself, previewed entries included:
SMILES	Vaccinia Venus	VACV mCherry inh
O=C(/C=C/[C@H]1O[C@@H](n2ccc(=O)[nH]c2=O)[C@H](O)[C@@H]1O)NC1CCN(Cc2ccccc2)C1 (some centres undefined)	2%	1%
NC(=O)C1CCN(CC(=O)Nc2nccs2)CC1	10%	-11%
COC(=O)Cn1c2ccccc2c(=O)n1C(C)C	-4%	5%
O=C(O)CCN(CCC(=O)O)c1nnc(SCc2ccccc2)s1	9%	4%
O=C(NCCC1=CCCCC1)c1cccc(S(=O)(=O)N2CCCCC2)c1	-1%	-18%
C=CCSc1ncccc1C(=O)NCCc1ccccc1	-8%	-12%
Nc1nc2ccc(Cl)cc2cc1C(=O)NCCCN1CCOCC1	-1%	-11%
Cc1ccc(S(=O)(=O)NC(=NCC(=O)O)c2ccccc2)cc1	-10%	.
CN(C)C(=O)c1cc(CNCc2ccc(C(F)(F)F)cc2)cc(NC(=O)c2ccccn2)c1	-1%	i
CCc1nc2ccccc2c(C(=O)NCc2ccccc2)c1C	-8%	0%
O=C(/C=C/c1ccc(Cl)cc1)NC(=S)Nc1ccc(CN2CCOCC2)cc1	-2%	-8%
COc1ccc(OC)c(/C=C/C(=O)Nc2ccc(C(=O)OCCC(C)C)cc2)c1	2%	-5%
O=C(Nc1ccnn1C1CCN(C/C=C/c2ccccc2)CC1)c1cccc(F)c1	-19%	i
CCc1cc(-c2nnn(CCC3COCCO3)c2CC)cc(CC)c1-c1cn(CCc2c[nH]c3ccccc23)nn1 (centres undefined)	?	-11%
CC(O)(COc1ccccc1)c1ccc2c(c1)CN(Cc1cccn1-c1ccccn1)CCO2 (centres undefined)	-1%	-13%
CCOc1ccccc1N1C(=O)c2ccc(C(=O)Nc3cccnc3)cc2C1=O	0%	-11%
S=c1[nH]nc(CCCc2n[nH]c(=S)o2)o1	-6%	-10%
COc1ccc(CC(NC(C)=O)C(=O)NC2CCN(C(=O)c3ccccc3F)CC2)cc1 (centres undefined)	-2%	-2%
CCn1c(C)c2c(C)nnc(C)c2c1C	-4%	-19%[1.46 µM]
Cc1cccc(NC(=O)CSc2nnc(CNC(=O)c3ccco3)o2)c1	-6%	-15%
COC(=O)c1ccc(CNC(=O)C2CCC(=O)N(CCN3CCOCC3)C2)cc1 (centres undefined)	-8%	i
Cc1ccc(CNCc2ccc3c(c2)OCO3)c(C)c1	-11%	?
Cc1ccc(NC(=O)/C(=C/c2cccs2)NC(=O)c2ccco2)c(C)c1	-1%	i
O=C(Oc1ccccc1)c1ccc(COC(=O)c2cnccn2)cc1	-19%	-24%
COC(=O)c1ccc(CSc2nnc3ccccn23)o1	-7%	i
CCOC(=O)C1=C(C)NC(C)=C(C(=O)OCC)C1c1ccc([N+](=O)[O-])s1	-23%&-26%	-15%&-11%
CCOC(=O)N(C)c1c(CC)nc2c(OCCOc3ccccc3)cccn12	-12%	i
O=C1CN(CC(=O)Nc2ccc(Cl)cc2)CCN1	-1%	-12%
CCOC(=O)C(=O)N(C)c1c(CC)nc2c(OCc3ccccc3OC)cccn12	1%	29%
O=C(N/N=C/c1ccco1)c1ccc(OCc2ccccc2)cc1	-16%	i
CCOC(=O)c1sc(NC(=O)COc2ccc3c(c2)OCO3)nc1C	-1%	i
COc1cc(N=Cc2c(O)c3ccccc3oc2=O)c(OC)cc1Cl	-5%	-6%
O=C(NCc1ccccn1)c1ccc(Cl)c(S(=O)(=O)N2CCCCCC2)c1	-22%	?
CC(=O)c1csc(-c2ccccc2)n1	-5%	i
O=C(CCC(=O)Nc1ccccc1)N/N=C/c1ccncc1	6%	1%
CN1CCN(CC(C)(C)NS(=O)(=O)c2ccc(Cl)cc2)CC1	-7%	-15%
CC(C)CCn1c(SCC(N)=O)nc2c1c(=O)n(C)c(=O)n2C	-5%	-8%
O=C(NC1CCN(C(=S)Nc2ccc(F)cc2)CC1)C1CCCCC1	-8%	-6%
Cn1c(N)c(C(=O)COC(=O)Cn2cc(C(F)(F)F)ccc2=O)c(=O)n(C)c1=O	-8%	.
O=C1CN(C(=O)c2ccc(Cl)cc2Cl)C(c2ccc(F)cc2)c2cc(F)ccc2N1 (centres undefined)	-18%	-13%
COc1ccc(S(=O)(=O)N2CCCCC2C(=O)O)cc1 (centres undefined)	-9%	-17%
CCN(CC)S(=O)(=O)c1cc(NC(=O)C(CC(C)C)NC(N)=O)ccc1C (centres undefined)	-25%	-24%
O=C(c1ccccc1)C(Nc1ccccn1)c1ccccc1 (centres undefined)	-10%	i
COc1ccc(-c2ccc3c(c2)S(=O)(=O)c2cccc(C(=O)NCCOc4ccccc4Cl)c2C3=O)cc1OC	7.9µM*	?
CC(=O)c1sc(NC(=O)CCc2ccccc2)nc1C	-17%	-9%

Profiles, looked up by structure:
O=C1CN(C(=O)c2ccc(Cl)cc2Cl)C(c2ccc(F)cc2)c2cc(F)ccc2N1 (centres undefined) across the screens: Vaccinia Venus: -18%; VACV mCherry inh: -13%
Cc1ccc(S(=O)(=O)NC(=NCC(=O)O)c2ccccc2)cc1 across the screens: Vaccinia Venus: -10%; VACV mCherry inh: .
O=C(O)CCN(CCC(=O)O)c1nnc(SCc2ccccc2)s1 across the screens: Vaccinia Venus: 9%; VACV mCherry inh: 4%

More records follow:
SMILES	Vaccinia Venus	VACV mCherry inh
CC(C)(C)NC(=O)CN(C(=O)C1CSC(=O)C1)c1ccccc1F (centres undefined)	-10%	-2%
CS(=O)(=O)N1CCC(NC(=O)Nc2ccc(OC(F)(F)F)cc2)CC1	-10%	-10%
O=C(COC(=O)C1=COCCO1)Nc1ccc(F)cc1	-8%	-12%
CCOc1ccccc1-n1nnc(S(=O)(=O)c2ccc(C)cc2)c1N	-1%	-4%
Cc1ccc(NC(=O)C2CC(=O)N(c3ccc4c5c(cccc35)CC4)C2)cc1 (centres undefined)	?	-8%
C[C@@H]1CN([C@@H](C)CO)S(=O)(=O)c2ccc(-c3ccc(C(=O)N(C)C)cc3)cc2O[C@@H]1CN(C)Cc1ccccc1C(=O)O	-12%	i
COc1ccc(-c2cc3nc4ccccc4n3c(N)c2C#N)cc1	-12%	5%
O=C(NCCc1c[nH]c2ccccc12)c1cccc(Br)c1	-18%	?
COC(=O)C1=CN(c2ccc(Oc3ccccc3)cc2)C(N)=C(C#N)C1c1cccc(F)c1 (centres undefined)	-25%	?
Brc1ccc(-c2cnnc(N3CCCC3)n2)cc1	3%	.
O=[N+]([O-])c1ccc(N2CCN(S(=O)(=O)c3ccc4ccccc4c3)CC2)cc1NCc1ccco1	-16%	.
Cn1c(=O)c2cc(S(=O)(=O)NCCC(=O)NC3CCCCCC3)ccc2n(C)c1=O	-15%	-15%
CCc1ccc(/C=N/NC(=O)c2nnn(-c3nonc3N)c2C(C)C)cc1	-24%	-7%
CC(=O)N1CCC(N(Cc2ccco2)C(=O)Nc2cccc(C)c2)CC1	2%	0%
COc1cc(/C=N/NC(=O)CCC(=O)NCc2ccccc2)cc(OC)c1OC	1%	i
Cc1ccc(-c2cc(C(=O)N3CCOCC3)c3ccccc3n2)o1	0%	-11%
CC(NS(=O)(=O)c1ccc2[nH]c(=O)[nH]c2c1)c1ccc(F)cc1 (centres undefined)	0%	i
COC(=O)c1cc(S(=O)(=O)NCc2ccccc2Cl)c[nH]1	-5%	i
C=CCn1c(-c2cccc([N+](=O)[O-])c2)n[nH]c1=S	9%	-1%
COc1cccc(/C=C/C(=O)O)c1C(C)C	-6%	-14%
Clc1ccc(Cn2ncc3c(N4CCN(c5ccccc5)CC4)ncnc32)cc1	?	?
CCn1c(C)cc2c(c1=O)C(c1ccc3c(c1)OCO3)C(C#N)=C(N)O2 (centres undefined)	-9%	?
CCc1ccc(N(CC)C(=O)Cc2c(C(=O)O)n(C)c3ccccc23)cc1	-12%	-22%
O=C(NCC1CCCO1)c1cc2ccccc2[nH]1 (centres undefined)	-14%	.
CCOc1cc(N2CCOCC2)c(OCC)cc1NC(=O)c1ccccc1	-10%	-10%
COc1ccccc1CNC(=O)Cn1cccc1C(=O)c1ccccc1C	-4%	-3%
CCCCN(C(=O)c1ccco1)C1CCS(=O)(=O)C1 (centres undefined)	-11%	-8%
O=C(CCCOc1ccc(Cl)cc1Cl)NCCc1nnc2ccccn12	-3%	i
CCn1cc(C2=NC(CC(C)C)CO2)c2ccccc21 (centres undefined)	?	-21%
CC(C)=CCN1CCN(Cc2cc(CC(C)C)n[nH]2)CC1CCO (centres undefined)	-21%	-18%

Retrieved one by one from above:
SMILES	Vaccinia Venus	VACV mCherry inh
CC(NS(=O)(=O)c1ccc2[nH]c(=O)[nH]c2c1)c1ccc(F)cc1 (centres undefined)	0%	i
COc1cccc(/C=C/C(=O)O)c1C(C)C	-6%	-14%

Additional entries
SMILES	Vaccinia Venus	VACV mCherry inh
O=C(NCCC(=O)N1CCN(c2ccccc2O)CC1)c1ccc(Cl)cc1	-25%	-17%
COc1ccccc1CNC(=O)c1nnn(CC(=O)Nc2c(C)cccc2C)c1N	-21%	-6%
O=C(NNC(=O)C12CC3CC(CC(O)(C3)C1)C2)c1csc(N2CCOCC2)n1	-2%	i
C=C[C@@H]1c2cc(C)ccc2N(S(=O)(=O)c2ccc(C)cc2)[C@H](c2ccc(OC(C)=O)cc2)C1(C#N)C#N	?	?
COc1cc(NC(=S)Nc2cccc(Cl)c2Cl)c(OC)cc1Cl	7%	-8%[1.46 µM]
COc1cc(OC)cc(C(=O)NC(=S)Nc2ccc(N3CCCC3)cc2)c1	-14%	-20%
COc1ccc(C(N)CCc2ccc(C)o2)cc1 (centres undefined)	-19%	.
Cc1ccc(C(=O)NCC(=O)OCC(=O)N(CC(C)C)c2c(N)n(Cc3ccccc3)c(=O)[nH]c2=O)s1	-9%	i
COc1ccc(-c2cc(-c3ccc(F)cc3)nc3c2COc2ccccc2-3)cc1	0%	-8%
CCOC(=O)c1c(S(=O)(=O)N2CCCCCC2)c(C)n(C)c1C	-1%	-14%
COc1ccc(C#Cc2c[nH]c(=O)c3cncnc23)cc1OC	-27%	-12%
CCCN(CCC)C(=O)c1ccc2c(c1)N(Cc1ccccc1)C(=O)CS2=O (centres undefined)	-2%	-6%
C#CCOCCOCCOCCNc1nc(N2CCN(C(=O)[C@H](Cc3cc4ccccc4[nH]3)n3cc(C(N)CC(C)C)nn3)CC2)nc(N2CCN(C(=O)[C@H](CCC(=O)O)n3cc(C(N)[C@H](C)CC)nn3)CC2)n1 (some centres undefined)	-19%	-27%
CNC(=O)O/N=C(\N)Cc1csc2ccccc12	9%	-9%
CCN(CC(=O)NCc1ccc(F)cc1)C(=O)c1oc2ccccc2c1C	4%	-7%
Cc1c(C(=O)O)oc2c1C(O)CC(C)(C)C2 (centres undefined)	-1%	-9%
CCOC(=O)c1ccccc1NC(=O)COC(=O)CCNS(=O)(=O)c1ccc(C)c(C)c1	-10%	i
O=c1[nH]c(SCc2n[nH]c(=S)n2-c2ccccc2)nc2ccccc12	?	.
O=C(c1ccccc1)c1ccc(OCCO)cc1	-10%	i
CCn1cc(C(=O)NCCCN(CC(C)C)CC(C)C)c(=O)c2cc(S(=O)(=O)N3CCOCC3)ccc21	-7%	i
C(=N\Nc1nc2ccccc2[nH]1)/C1CCCCC1	-9%	-21%
COCCNC(=S)N1CCC2CC1c1c(Cl)cccc12 (centres undefined)	-4%	i
Cc1ccc2nc3n(c(=O)c2c1)-c1cc2ccccc2cc1C(=O)NC3Cc1ccccc1 (centres undefined)	?	-16%
COc1ccc2c(c1)c(C(=O)CN1CCN(c3ccccc3)CC1)c(C)n2C	-13%	-15%
Cc1cc(C)c2oc(-c3cccc(NC(=O)c4ccc(Br)o4)c3)nc2c1	-6%	-11%
O=C(N/C(=C\c1ccccc1)C(=O)N1CCCCC1)c1ccco1	7%	-18%
Cc1ccc(S(=O)(=O)C(CNC(=O)C(=O)NCc2ccc(Cl)cc2)c2cccs2)cc1 (centres undefined)	-15%	-19%
O=C(NCc1ccco1)C1C(=O)Nc2ccccc2C(=O)N1C1CCCCC1 (centres undefined)	0%	-8%
CC1CN(S(=O)(=O)c2cn(C)c(=O)n(C)c2=O)CC(C)O1 (centres undefined)	-14%	i
Cc1ccccc1C(=O)Nc1nnc(SCc2cc(=O)n3ccccc3n2)s1	-8%	-14%
